Bioassay records deposited in PubChem by several laboratories.
CSC inhib – blocks cancer stem cells; cancer stem cell-like cells viability, luminescence; inhibition, % at 7.5 µM; 1.1% of 300,000 active; AID 2717;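 active = mean at 75% or more and at least half the replicates too; tested in HMLE shEcad cells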;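 note: 0% = median of negative and 100% = median of positive control wells; the first replicate is given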
Env fusion inh – HIV envelope-mediated fusion inhibition; 1.1% of 360,000 active; inhibition, % at 12.3 µM; HeLa-JRFL Env/CEM21 cell fusion, luciferase;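 active = mean replicate inhibition score of at least 50 and every replicate individually at or above 50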;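 note: 0% = plate neutral controls and 100% = maraviroc near 300 nM; one replicate is shown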
eIF4H inh – inhibitors of RNA binding by human eIF4H | Q15056 | eIF4H fluorescence polarization binding assay | inhibition, % at 35 µM | 0.94% of 290,000 active;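 active = 50% or more with normal probe brightness, or confirmed in later tests; about a fifth of its hits are not listed in these tables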;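 note: calls also rest on retests at 20 µM and on dose response follow-up; 0% = protein and probe with vehicle and 100% = probe without protein; strong numbers were not always called active; many hits fall short of the cut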
MT1-MMP act inh – MT1-MMP (human) activation inhibition; 0.061% of 360,000 active; GFP/RFP ratio change, % at 20 µM; HT1080 RFP-PRO-GFP cells, GFP/RFP ratio fluorescence, overnight; percent of plate control window, DMSO zero; AID 651647; P50281;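 active = GFP/RFP ratio change of at least 30% with cell ATP level not reduced by more than half and red fluorescence within 50% of control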; note: strong numbers were not always called active
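Test system: HT1080 cells expressing an RFP-PRO-GFP fluorescent reporter construct / Compound dosing: single-point 20 µM compound, 1% DMSO / Schedule: cells overnight before dosing, compound overnight, 37 °C, 5% CO2 / Evaluation: GFP/RFP fluorescence ratio / Control set: DMSO and RFP-L50D-GFP cell wells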
Rce1 inh – inhibitors of yeast Ras-converting enzyme; Q03530; yeast membranes, quenched prenylated peptide cleavage fluorescence; calls only; 0.27% of 290,000 active;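 active = fall in fluorescence gain of 50% or more versus controls, with final raw signal at or below 3038400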;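 note: plate controls were neutral control wells for no effect and wells lacking membranes for full effect; tested at 10 µM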
Target sequence (Q03530 whole entry, looked up): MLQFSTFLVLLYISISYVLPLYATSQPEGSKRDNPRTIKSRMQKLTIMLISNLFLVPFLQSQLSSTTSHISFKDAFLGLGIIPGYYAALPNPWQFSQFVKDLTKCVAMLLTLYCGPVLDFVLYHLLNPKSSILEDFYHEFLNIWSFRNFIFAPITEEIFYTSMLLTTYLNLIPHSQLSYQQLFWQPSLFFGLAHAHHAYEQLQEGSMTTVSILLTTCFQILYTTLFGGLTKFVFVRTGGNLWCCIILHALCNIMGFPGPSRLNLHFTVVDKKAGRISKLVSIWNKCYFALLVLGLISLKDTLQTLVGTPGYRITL
UUG fidelity – yeast start codon fidelity modulation. AID 602363. S. cerevisiae UUG-firefly luciferase reporter, luminescence/redox ratio. 0.13% of 350,000 active. activity score, % at 18.7 µM;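 active = replicate mean at a twofold rise or more, about +100% in these data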;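 note: firefly luciferase made from a UUG start codon reports start codon fidelity; reporter light over untreated wells divided by growth signal over untreated wells; some hits fall short of that in this replicate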
PABP FP inh – blocks human PABP binding to poly(A) RNA; fluorescence polarization; P11940; inhibition, % at 35 µM; 1% of 290,000 active;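 active = 50% or more with normal probe brightness, or confirmed in later tests; about a fifth of its hits are not listed in these tables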;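 note: calls also rest on retests at 20 µM and on dose response follow-up; controls were probe without protein and protein plus probe with vehicle; some compounds called inactive have numbers as strong as hits; many hits fall short of the cut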
Target sequence (P11940 whole entry, looked up): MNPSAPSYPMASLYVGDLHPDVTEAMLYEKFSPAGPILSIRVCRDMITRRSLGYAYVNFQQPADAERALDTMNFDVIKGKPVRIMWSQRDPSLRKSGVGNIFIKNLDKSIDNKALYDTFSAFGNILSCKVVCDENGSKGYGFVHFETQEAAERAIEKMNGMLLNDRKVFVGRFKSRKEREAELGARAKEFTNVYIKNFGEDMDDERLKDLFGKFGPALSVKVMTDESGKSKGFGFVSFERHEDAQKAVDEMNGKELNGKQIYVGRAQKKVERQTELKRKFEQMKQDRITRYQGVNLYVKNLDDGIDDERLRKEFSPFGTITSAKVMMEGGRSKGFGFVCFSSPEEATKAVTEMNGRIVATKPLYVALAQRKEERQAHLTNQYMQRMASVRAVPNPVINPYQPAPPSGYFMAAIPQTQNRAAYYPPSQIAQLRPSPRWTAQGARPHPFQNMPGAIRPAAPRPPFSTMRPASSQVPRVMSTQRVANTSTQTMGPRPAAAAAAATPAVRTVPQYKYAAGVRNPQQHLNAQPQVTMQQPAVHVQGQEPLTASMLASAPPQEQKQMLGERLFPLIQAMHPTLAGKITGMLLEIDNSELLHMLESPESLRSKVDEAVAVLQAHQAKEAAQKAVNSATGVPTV
eIF4H inh retest – second read-out of eIF4H inh, no call of its own (marks repeat the call); inhibition, %; compound at 20 µM; confirmation average;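 mean of two retest wells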
PABP FP inh retest – second read-out of PABP FP inh, no call of its own (marks repeat the call); inhibition, %; compound at 20 µM; confirmation repeats;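 mean of two retest wells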
MT1-MMP act inh RFP – further read-out of MT1-MMP act inh, marked with its call; RFP signal change, %; measured here: RFP expression control read;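 0 = vehicle wells; hits needed this value within 50% of zero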
Numbers without * were called inactive; i = inactive; / = no result given. No enrichment for hits; any-hit rate near 3%.

SMILES	CSC inhib	Env fusion inh	eIF4H inh	MT1-MMP act inh	MT1-MMP act inh RFP	Rce1 inh	UUG fidelity	PABP FP inh	others
CC/C(=N/O)C(=O)c1ccc(Br)cc1	1	-12	-13	-1	-3	/	/	-6
Oc1ccc(N2CCN(Cc3ccc(OCCCN4CCCCC4)cc3)CC2)cc1	-8	-15	25	-2	0	i	/	-9
CCCCn1c(O)c(/C=C2\C=NN=C2c2ccccc2)sc1=S	39	/	-1	5	3	i	-14	-4
Cc1ccsc1C(=O)Nc1nc2ccccc2[nH]1	43	-104	-2	2	1	i	-43	11
CC(=O)N(Cc1ccco1)C1(C(=O)NC2CCCC2)CCCCC1	-11	-44	-1	-3	6	i	3	0
CC(C)(CO)N=Cc1c(O)[nH]c2ccccc12	11	/	-1	-3	-8	i	8	-1
COc1ccc(CN2C=C3C(=O)C(C)(OC(=O)CCc4ccccc4)C(=O)C=C3C=C2c2ccc(C#N)cc2)cc1 (stereo unspecified)	-2	-31	13	-7	-5	i	-12	1
COc1cccc(NC(=S)/C(=C(\[O-])c2ccc([N+](=O)[O-])cc2)[n+]2ccccc2)c1	-8	3	-10	1	1	i	-22	10
CCSC1=C(C#N)C(c2ccc(Cl)cc2)C2=C(CCCC2=O)N1 (stereo unspecified)	15	58*	-18	-5	0	i	-5	-3
Cc1ccc(NC(=O)CSc2ncccn2)cc1F	-18	-7	14	1	0	i	/	-3
CCOc1ccc(NC(=O)C2CC(=O)OC2c2ccccc2)cc1 (stereo unspecified)	2	8	-5	0	-2	i	/	-2
O=C(NCc1cnn(-c2ccc(F)cc2)c1)C1CCC(=O)N(C2CC2)C1 (stereo unspecified)	-12	18	-4	0	-2	i	0	-7
O=Nc1c(O)n(Cc2ccccc2)c2ccccc12	-15	5	7	-4	-4	i	-5	3
CCOC(=O)c1[nH]nc(C(=O)c2ccc(Br)cc2)c1O	-7	-48	10	1	1	i	2	0
COc1nc(-c2ccc(C)cc2)ccc1-c1noc(-c2ccco2)n1	-14	-33	17	-2	6	i	-3	2
CC(C)N1CCN(S(=O)(=O)c2ccccc2)CC1	-6	3	12	-3	5	i	-8	5
Cc1ccc(S(=O)(=O)Nc2ccccc2F)cc1C(=O)OC(C)C(=O)N1CCOCC1 (stereo unspecified)	0	0	/	0	-4	i	/	/
CC1(C)CC(=O)c2c(O)c(-c3ccccc3)c(=O)n(-c3ccccc3)c2C1	14	-179	-3	-3	-1	i	5	1
O=C(COC(=O)C1(c2ccc(Cl)cc2)CCCC1)NC1CCS(=O)(=O)C1 (stereo unspecified)	-10	-16	-12	/	/	i	-15	0
Cc1nn(C(C)C(=O)NCc2cccs2)c(C)c1[N+](=O)[O-] (stereo unspecified)	-13	1	1	-5	2	i	/	-8
Clc1cc(NC2CCCCC2)ncn1	-2	-17	-4	1	2	i	-14	-6
CCN(CC)c1ccc(C(=S)NCc2ccccc2)cc1	18	15	-8	0	3	i	/	-17
CC(NC(=O)CN(c1ccc(F)cc1)S(C)(=O)=O)c1ccccc1 (stereo unspecified)	2	-5	14	-2	1	i	-29	6
O=C(O)c1nn2c(c1Br)NC(c1ccccc1)CC2C(F)(F)F (stereo unspecified)	-16	/	-4	-1	-1	i	-5	10
Cc1ccc(NC(=S)NNC(=O)Cn2nc([N+](=O)[O-])cc2C)cc1	-9	/	-4	1	2	i	-31	-14
CCOc1cc(/C=C2\COc3ccccc3C2=O)ccc1OCC(=O)N(C)C	36	-23	4	-6	-18	i	1	8
COc1ccc(-n2c(=S)[nH]c3cc(C(=O)NCc4cccnc4)ccc3c2=O)c(OC)c1	-14	-2	2	1	-1	i	-24	-10
CCN(CC)S(=O)(=O)c1ccc2nnn(O)c2c1	-8	-6	2	0	5	i	-17	5
Cc1ccc(NC(=O)c2oc(=O)c3ccccc3c2-c2ccccc2)c(C)c1	-4	-25	-3	5	-5	i	/	6
S=c1[nH]nc(-c2ccncc2)n1/N=C/c1cccc2ccccc12	-1	-16	-2	/	/	i	/	-6
Cc1ccc(S(=O)(=O)N2CCN(C(=O)C3CCCO3)CC2)cc1 (stereo unspecified)	2	/	7	5	6	i	-8	2
CCCCN(S(=O)(=O)c1ccccc1)S(=O)(=O)c1ccccc1	-4	15	2	1	-3	i	-4	2
Cc1ccc(C(=O)Nc2ccccc2[N+](=O)[O-])cc1S(=O)(=O)N1CCOCC1	/	12	-9	-2	2	i	9	18
COc1cccc(NC(=O)C2CCCN2C(=O)OCc2ccccc2)c1 (stereo unspecified)	-3	/	0	1	-1	i	2	4
O=C(N/C(=C/c1cccc([N+](=O)[O-])c1)C(=O)N1CCCCCC1)c1ccco1	6	/	-4	4	5	i	-7	-8
CN(C)c1ccc(NC(=S)NC(=O)/C=C/c2ccc(Cl)cc2)cc1	-1	/	4	0	-7	i	-18	-7
COc1ccc(C(=O)NN=C(Cc2ccccc2)Cc2ccccc2)cc1OC	-14	-2	-9	5	3	i	/	9
CCOC(=O)Cn1nc(C)c(NC(=O)COc2ccc(C)c(C)c2)c1C	-7	3	-1	7	3	i	/	0
COc1ccc(N2CC(C(=O)OCC(=O)Nc3cccc(C)c3)CC2=O)cc1 (stereo unspecified)	-17	-1	-3	-3	-1	i	-8	-5
Cc1ccc(C(=O)CCS(=O)(=O)c2ccc(Cl)cc2)cc1	-2	-5	7	1	2	i	-6	-5
Oc1cc2c(cc1CN1CCN(c3cccc(C(F)(F)F)c3)CC1)CCC2	38	23	-6	-8	-4	i	-16	-4
CC(=O)c1ccc(-c2cccc([C@H]3[C@@H]4C=CC[C@@H](C)[C@@H]4C(=O)N3Cc3ccccc3)c2)cc1	/	30	/	-19	-18	/	-14	/
COc1ccc(-c2csc(N(CCCN(C)C)C(=O)c3ccc(OC)c(OC)c3)n2)cc1	/	-6	/	-4	3	/	-9	/
CC(C)Cc1ccc(C(C)C(=O)Nc2ccccc2O)cc1 (stereo unspecified)	21	30	-13	-10	-24	i	-5	1
Clc1ccc(OCCn2ccnc2)c(Br)c1	10	/	1	-5	1	i	-20	23
COc1cc(OC)c(NC(=O)c2ccc3c(SCC(=O)O)c4c(nc3c2)CCCC4)cc1Cl	-4	15	81*	3	3	i	/	12*	eIF4H inh retest=77*;PABP FP inh retest=54*
COCCC(=O)N1CCC(n2nccc2NC(=O)c2ccccc2C)CC1	1	3	-8	0	-1	i	-7	-5
Cc1ccc(S(=O)(=O)N2CCC(C(=O)N3CCC(C(=O)NCc4cccnc4)CC3)CC2)cc1	-9	/	0	-6	6	i	-9	17
OCC1OC(n2cnc3c(NC4CCCC4)ncnc32)C(O)C1O (stereo unspecified)	-15	10	/	6	3	i	-1	/
COc1ccc(NC2CCCN(C(=O)c3csc(C(C)C)n3)C2)cc1OC (stereo unspecified)	-9	15	5	5	-1	i	-23	13
CC(=O)c1ccc(-c2cccc(-c3nc4ccccn4c3NC3CCCCC3)c2)cc1	62	13	/	1	-9	i	-12	/
O=C1c2ccccc2C(=O)N1Cc1cc(-c2ccccc2)no1	-5	-22	-1	-9	3	i	-19	-1
CC(NC(=O)C(=O)N/N=C\c1cccc([N+](=O)[O-])c1)c1ccccc1 (stereo unspecified)	-1	4	3	-2	0	i	/	1
Cc1cccc(N2CN=c3s/c(=C\c4ccncc4)c(=O)n3C2)c1	/	/	-2	2	4	i	-11	1
COc1ccc(S(=O)(=O)N2CCCC2CNC(=O)c2cccc(OC)c2)cc1 (stereo unspecified)	-3	-5	/	-4	-4	i	-12	/
CCN(CC)C(=O)n1nc(C)c(CN2C(=O)c3ccccc3C2=O)c1C	1	2	/	3	-3	i	-5	/
O=S(=O)(NCc1ccc(F)cc1)c1ccc(-n2cnnn2)cc1	/	-1	-2	6	4	i	-8	-5
COc1ccccc1NC(=O)CC1Nc2ccccc2NC1=O (stereo unspecified)	-11	-117	-4	-5	5	i	-7	21
CC(=O)c1c(C)[nH]c(C(=O)OC(C)C(=O)NC2CCCCC2)c1C (stereo unspecified)	/	9	/	7	-7	/	-8	/
COc1cccc(C(C(=O)NCC2CCCO2)N(C(=O)Cn2nnc3ccccc32)c2ccc(NC(C)=O)cc2)c1 (stereo unspecified)	-3	-5	-8	0	-1	i	1	-4
COc1ccc(CCNC(=O)COC(=O)Cc2cccc3ccccc23)cc1	-5	/	1	6	11	i	5	-2
CC1Oc2ccccc2N(CC(=O)Nc2ccc3c(c2)OCO3)C1=O (stereo unspecified)	-4	-84	3	-2	-1	i	-9	-2

An excerpt from further up:
SMILES	CSC inhib	Env fusion inh	eIF4H inh	MT1-MMP act inh	MT1-MMP act inh RFP	Rce1 inh	UUG fidelity	PABP FP inh	others
COc1cc(OC)c(NC(=O)c2ccc3c(SCC(=O)O)c4c(nc3c2)CCCC4)cc1Cl	-4	15	81*	3	3	i	/	12*	eIF4H inh retest=77*;PABP FP inh retest=54*
COCCC(=O)N1CCC(n2nccc2NC(=O)c2ccccc2C)CC1	1	3	-8	0	-1	i	-7	-5
Cc1ccc(S(=O)(=O)N2CCC(C(=O)N3CCC(C(=O)NCc4cccnc4)CC3)CC2)cc1	-9	/	0	-6	6	i	-9	17
OCC1OC(n2cnc3c(NC4CCCC4)ncnc32)C(O)C1O (stereo unspecified)	-15	10	/	6	3	i	-1	/
COc1ccc(NC2CCCN(C(=O)c3csc(C(C)C)n3)C2)cc1OC (stereo unspecified)	-9	15	5	5	-1	i	-23	13
CC(=O)c1ccc(-c2cccc(-c3nc4ccccn4c3NC3CCCCC3)c2)cc1	62	13	/	1	-9	i	-12	/
O=C1c2ccccc2C(=O)N1Cc1cc(-c2ccccc2)no1	-5	-22	-1	-9	3	i	-19	-1
CC(NC(=O)C(=O)N/N=C\c1cccc([N+](=O)[O-])c1)c1ccccc1 (stereo unspecified)	-1	4	3	-2	0	i	/	1
Cc1cccc(N2CN=c3s/c(=C\c4ccncc4)c(=O)n3C2)c1	/	/	-2	2	4	i	-11	1
COc1ccc(S(=O)(=O)N2CCCC2CNC(=O)c2cccc(OC)c2)cc1 (stereo unspecified)	-3	-5	/	-4	-4	i	-12	/
CCN(CC)C(=O)n1nc(C)c(CN2C(=O)c3ccccc3C2=O)c1C	1	2	/	3	-3	i	-5	/
O=S(=O)(NCc1ccc(F)cc1)c1ccc(-n2cnnn2)cc1	/	-1	-2	6	4	i	-8	-5
COc1ccccc1NC(=O)CC1Nc2ccccc2NC1=O (stereo unspecified)	-11	-117	-4	-5	5	i	-7	21
CC(=O)c1c(C)[nH]c(C(=O)OC(C)C(=O)NC2CCCCC2)c1C (stereo unspecified)	/	9	/	7	-7	/	-8	/

3 structures from above, arranged by formula weight, falling:
SMILES	CSC inhib	Env fusion inh	eIF4H inh	MT1-MMP act inh	MT1-MMP act inh RFP	Rce1 inh	UUG fidelity	PABP FP inh	others
COc1ccc(-c2csc(N(CCCN(C)C)C(=O)c3ccc(OC)c(OC)c3)n2)cc1	/	-6	/	-4	3	/	-9	/
COc1ccc(-n2c(=S)[nH]c3cc(C(=O)NCc4cccnc4)ccc3c2=O)c(OC)c1	-14	-2	2	1	-1	i	-24	-10
CC/C(=N/O)C(=O)c1ccc(Br)cc1	1	-12	-13	-1	-3	/	/	-6
